Source: PubChem
VACV Venus inh = vaccinia inhibition (Venus reporter); Vaccinia virus Venus reporter expression, fluorescence; Potency, µM (top dose mostly 36.5 µM), inactives show at the top dose activity change, negative = inhibition, actives largely listed as inhibitors; hit rate 0.46% among 330,000; AID 720580; active means well fitted inhibition curve with a large enough effect; inconclusive means small, poorly fitted or top-dose-only effect; inactive means no such curve, though single readings can be large or run the other way; tested in A549 cells; further: nearly all actives have a fitted effect of over 30% in size; inactives centre near -10
Vaccinia mCherry = vaccinia inhibition (mCherry reporter); Potency, µM (highest dose often 36.5 µM), for inactives: at the top dose activity change, negative = inhibition, usual class: inhibitors; Vaccinia virus mCherry reporter infection, fluorescence; about a quarter of the inactives have no number; hit rate 0.63% among 310,000; active = well fitted inhibition curve with a large enough effect; inconclusive = small, poorly fitted or top-dose-only effect; inactive = no such curve, though single readings can be large or run the other way; tested in A549 cells; further: nearly all actives have a fitted effect of over 35% in size; inactives centre near -10
The depositor's hits bear a star; i = inactive; ? = inconclusive; · = no result given; & = joins results of further samples; [ ] = remark or other dose. On the % scale 0 is the no-effect control and ±100 the full control effect; potency means the concentration at half of the fitted maximal effect.

Start of the data: the first 3 records, ahead of the listing:
structure | VACV Venus inh | Vaccinia mCherry
Cc1cc(C)c(OCC(=O)Nc2cccc(NC(=O)c3ccco3)c2)c(Br)c1 | -25% | ?
O=C(C1=NN(c2ccccc2)C2C(=O)N(c3cccc(Cl)c3)C(=O)C12)c1ccccc1 (stereo not drawn) | -5% | -14%
Cc1ccc(NC(=O)N2CCC(CN3CCCCCC3)CC2)c(Cl)c1 | -8% | -10%

The listing, previewed entries included:
structure | VACV Venus inh | Vaccinia mCherry
Cc1cc(C)c(OCC(=O)Nc2cccc(NC(=O)c3ccco3)c2)c(Br)c1 | -25% | ?
O=C(C1=NN(c2ccccc2)C2C(=O)N(c3cccc(Cl)c3)C(=O)C12)c1ccccc1 (stereo not drawn) | -5% | -14%
Cc1ccc(NC(=O)N2CCC(CN3CCCCCC3)CC2)c(Cl)c1 | -8% | -10%
CC1(C)Nc2ccccc2C(=O)N1c1ccc(Br)cc1 | -17% | -21%
Cn1cnc([N+](=O)[O-])c1Cl | -20% | -4%
C[C@H]1CN([C@@H](C)CO)C(=O)c2cc(C#CCC3CCCC3)cnc2O[C@@H]1CN(C)C(=O)CC1CC1 | -9% | -15%
Cc1ccccc1CSc1nnc(-c2ccco2)n1Cc1ccco1 | -20% | -24%
Cc1ccc(S(=O)(=O)NCCCC(=O)O)cc1 | -11% | i
Cc1ccc(OCC(=O)NCC2(N(C)C)CCCCC2)cc1C | -11% | -11%
Cc1ccc(S(=O)(=O)N2CCOCC2)cc1C(=O)NCCN1C(=O)S/C(=C\c2ccccc2Cl)C1=O | ? | ?
CCOC(=O)C1=C(N)Oc2cc(C)[nH]c(=O)c2C1c1ccncc1 (stereo not drawn) | -1% | ·
O=C(NCCN1CCOCC1)C1CCC(=O)N1Cc1ccccc1Cl (stereo not drawn) | -11% | ·
Cc1ccc(C)c(-n2c(Cc3cc(=O)[nH]c(=O)[nH]3)nnc2SCC(=O)NCc2ccco2)c1 | -3% | -7%
Cc1cccc(N2CCN(C(=O)C3CCC(=O)N(C4CC4)C3)CC2)c1C (stereo not drawn) | 0%[7.34 µM] | i[7.34 µM]
Cc1ccc(NC(=O)COC(=O)C(NS(=O)(=O)c2ccc(Cl)cc2)C(C)O)cc1C (stereo not drawn) | -2% | i
CCOC(=O)c1c(C)oc2nc(C)nc(NCC3CCN(Cc4cc(C)ccc4C)CC3)c12 | -1% | -8%
CCCNC(=O)c1nnsc1S(=O)(=O)c1ccc(Cl)cc1 | 13µM* | ?
COc1ccc(OC)c(NC(=O)c2[nH]c(C)c(C(C)=O)c2C)c1 | -16% | -16%
CC(C)(C)NC(=O)NC(=O)COC(=O)c1ccc(OC(F)(F)F)cc1 | 1% | -8%
CCCc1noc2c1/C(=N\O)CC(CC(C)SCC)C2 (stereo not drawn) | -15% | -15%
CC(C)N(C(=O)COC(=O)c1cccc(C(=O)OCC(=O)N(C(C)C)C(C)C)n1)C(C)C | -6% | -9%
c1cc2cn[nH]c2cc1NC1CCCCCC1 | -7% | i
Cc1c(CC(=O)NCCc2ccccc2)c(=O)oc2c(C)c3occ(C(C)(C)C)c3cc12 | -3% | -18%
S=C(NCc1ccco1)Nc1ccc(N2CCOCC2)cc1 | -5% | -8%

Random excerpt: five records from the list
structure | VACV Venus inh | Vaccinia mCherry
CC(C)N(C(=O)COC(=O)c1cccc(C(=O)OCC(=O)N(C(C)C)C(C)C)n1)C(C)C | -6% | -9%
CC(C)(C)NC(=O)NC(=O)COC(=O)c1ccc(OC(F)(F)F)cc1 | 1% | -8%
S=C(NCc1ccco1)Nc1ccc(N2CCOCC2)cc1 | -5% | -8%
CCCc1noc2c1/C(=N\O)CC(CC(C)SCC)C2 (stereo not drawn) | -15% | -15%
Cc1c(CC(=O)NCCc2ccccc2)c(=O)oc2c(C)c3occ(C(C)(C)C)c3cc12 | -3% | -18%

Additional structures follow.
structure | VACV Venus inh | Vaccinia mCherry
CC1(C)CC(=O)C(C(c2ccc(F)cc2)C2C(=O)CC(C)(C)CC2=O)C(=O)C1 | -9% | -13%
CCOC(=O)CC(NC(=O)CCc1c(C)nc2c(c(C)nn2-c2ccc(C)c(C)c2)c1C)c1ccc(C)cc1 (stereo not drawn) | -25% | -28%
COc1ccc(OCCN2CCC(C(=O)NC(C)c3cccc4ccccc34)CC2)cc1 (stereo not drawn) | -8% | i
CC(=O)Nc1nnc(SCC(=O)Nc2ccc3c(c2)OCCO3)s1 | -10% | i
CCc1ccc(-n2c(=O)c3cccnc3n2CC(=O)Nc2cc(OC)ccc2OC)cc1 | -21%[7.34 µM] | -21%[7.34 µM]
c1ccc(Cc2nnc(N3CCOCC3)c3ccccc23)cc1 | -14% | ·
COc1ccc(CCNC(=O)C(=O)NCC(c2ccco2)S(=O)(=O)c2ccccc2)cc1OC (stereo not drawn) | -7% | i
CCCCNC(=O)O[C@H]1C[C@@H]2CCN3C(=O)CCC[C@H]([C@H]1Cc1ccccc1)[C@H]23 | -4%&-16% | -12%

In a second layout: entries from further up
Order of values – VACV Venus inh | Vaccinia mCherry
CCc1ccc(-n2c(=O)c3cccnc3n2CC(=O)Nc2cc(OC)ccc2OC)cc1
  -21%[7.34 µM] | -21%[7.34 µM]
COc1ccc(OCCN2CCC(C(=O)NC(C)c3cccc4ccccc34)CC2)cc1 (stereo not drawn)
  -8% | i

(more compounds)
structure | VACV Venus inh | Vaccinia mCherry
Cc1ccc(/C=C/C(=O)OCC(=O)Nc2cccc(S(=O)(=O)N(C)C)c2)o1 | -17% | -18%
CC(=O)c1ccc(C(=O)N2CCCC(CO)(Cc3ccccc3C)C2)s1 (stereo not drawn) | -9% | -15%
CCn1c(/C=C/c2ccccc2F)nc2ccccc2c1=O | -30% | -21%
CCOc1ccc(C(=O)CCC(=O)N(CC)CC(=O)NCc2ccc(Cl)cc2)cc1 | -16% | i
CCc1nc2ccc(C(=O)N3CCN(S(=O)(=O)CC)CC3)cn2c1N(C)C(=O)C1CCCCC1 | -8% | -11%
Cc1noc(C)c1C(=O)NC1=NCCS1 | -12% | -2%
O=C(NCCS(=O)(=O)NCc1ccc(F)cc1)c1ccccc1 | -13% | -18%
NS(=O)(=O)c1ccc(NC(=O)CSc2nnc3c(n2)[nH]c2ccccc23)cc1 | -8% | i
COc1ccc(C(=S)N2CCCC2)cc1Br | -9% | -18%
Cc1ccc(-n2ncc3c(NC4CCCCC4)ncnc32)cc1C | -5% | -1%
Cc1c(NC(=O)C2CCCO2)cccc1[N+](=O)[O-] (stereo not drawn) | -8% | i
COc1cc(CNC2CCCCC2OC)cc(OC)c1OC (stereo not drawn) | -10% | -9%
COc1ccc(CCNC(=O)c2cc(S(=O)(=O)N3CCC4(CC3)OCCO4)ccc2F)cc1OC | -5% | i
Cc1ccc(C(=O)N/C(N)=N/c2nc3ccccc3o2)cc1 | -16% | ·
Cc1ccc(C)c(N2CCN(C(=O)Cn3c(=O)c4cccn4c4ccc(F)cc43)CC2)c1 | -7% | -13%
OCCC1CN(Cc2cccc(OC3CCCC3)c2)CCN1Cc1ccsc1 (stereo not drawn) | -18% | ?
CS(=O)(=O)Nc1ccc(S(=O)(=O)NCCc2ccccc2)cc1 | -9% | -4%
CC1C(=O)CC(c2ccccc2)N(C)C1c1ccccc1 (stereo not drawn) | -1% | 8%
COc1ccc(CNC(=O)CCCN2C(=O)c3ccccc3C2=O)cc1 | -11% | i
OCCNc1ncnc2ccc(Br)cc12 | -20% | ·
O=C(Nc1ccc2c(c1)OCO2)c1ccc2nc([C@@H]3O[C@H](CO)[C@H](O)[C@H](O)[C@H]3O)[nH]c2c1 | -6% | i
N#CN/C(=N\S(=O)(=O)c1ccccc1)c1ccccc1 | -12% | -15%
COc1ccc(C(CNC(=O)c2cccc(NS(=O)(=O)c3ccc(C)c(F)c3)c2)N2CCOCC2)cc1 (stereo not drawn) | -8% | -27%
CCOc1cc(C(=S)N2CCCC2)ccc1OCc1ccccc1 | -27% | i
COc1ccc(-c2csc(/C=C/c3ccc4c(c3)OCO4)n2)cc1OC | -16% | -25%
O=c1[nH]cc(CCCc2ccccc2)c(=O)[nH]1 | -2% | i
Cn1cc(S(=O)(=O)N2CCCCCC2)cc1C(=O)N1CCN(c2cccc(Cl)c2)CC1 | -14% | -19%
COc1ccc(NC(=O)COC(=O)COc2cccc3c2OC(C)(C)C3)cc1 | -17% | -7%
Cn1c(=O)[nH]c(=O)c2c1ncn2CCCc1ccccc1 | -22% | ·
CCOC(=O)CCC1(C(=O)OC)C(=O)CCCCCC=C1C(=O)OC (stereo not drawn) | -13% | -7%
O=C(NCCc1c[nH]c2ccccc12)c1ccc2[nH]c(=O)c(=O)[nH]c2c1 | 5% | -3%
COC(=O)C1=C(c2ccc(S(C)(=O)=O)cc2)C[C@@H]2CC[C@H]1N2C(=O)NCc1ccc(C(F)(F)F)cc1 | -16% | i
Nc1ccc(S(=O)(=O)NC2(C(F)(F)F)NC(=O)N(c3ccc(F)cc3)C2=O)cc1 (stereo not drawn) | -10% | -5%
CCCCn1c(N)c(N(CC)C(=O)c2cccc(S(=O)(=O)N3CCCc4ccccc43)c2)c(=O)[nH]c1=O | -11% | -23%
OC(CNCCc1ccc(Cl)cc1)COCc1ccco1 (stereo not drawn) | -7% | ·
Cc1ccc2nc(N(Cc3cccnc3)C(=O)CCc3ccccc3)sc2c1 | -15% | -1%
CCCc1cc(=O)oc2c3c(cc(OCC(=O)NCc4ccncc4)c12)OC(C)(C)CC3 | 0% | 9%
COc1ccc(Nc2ncc(C#N)c(N)n2)c(OC)c1 | -13% | -3%
COc1ccc2c(c1OC)CN1CCc3cc4c(cc3C1C2)OCO4 (stereo not drawn) | -20% | -15%
CCn1c(=O)c(C(=O)NC(C)C)c(O)c2ccccc21 | -11% | -4%
Cc1cc(C)n2c(Nc3ccc4c(c3)OCCO4)c(-c3ccccc3)nc2n1 | ? | -13%&-28%
CCn1c(CC(=O)Nc2ccccc2C)nnc1SCC(=O)NC1CCCC1 | 2% | -8%
COc1ccc2cc(C(=O)c3ccccc3)c(=O)oc2c1 | 0% | -1%
COc1ccc(CC(C)N2CCN(Cc3ccccc3)CC2)cc1OC (stereo not drawn) | -3% | -4%
COc1ccccc1NC(=O)N[C@@H](Cc1c[nH]c2ccccc12)C(=O)NN | -6% | i
COCC(=O)Nc1cc(C(=O)NCC(C)C)ccc1Cl | 3% | -5%
COC(=O)C1=C(C)N(CC2CC2)C(=NCc2cc(OC)c(OC)c(OC)c2)N[C@H]1c1ccccc1 | -8% | -7%
CC(=O)Cc1nsc(NC(=O)c2ccc(COc3ccccc3Cl)o2)n1 | -16% | -10%
O=C(Nc1cccc(F)c1)c1oc2ccccc2c1NC(=O)C12CC3CC(CC(C3)C1)C2 | -4% | 7%
Cc1ccc(NC(=O)C2CCN(S(=O)(=O)c3cccc4nsnc34)CC2)cc1 | -13% | -20%
COc1cc(OC)cc(C(=O)NCCCCNC(=O)c2cc(OC)cc(OC)c2)c1 | -7% | i
CC(=O)Nc1ccc(-n2c(CCC(=O)O)ccc2-c2ccc(C)cc2)cc1 | -5% | -17%
CCOC(=O)Cn1c(=O)oc2cc(S(=O)(=O)N(C)Cc3ccccc3)ccc21 | 1%[7.34 µM] | -12%[7.34 µM]
CC(=O)N1CCCc2cc(S(=O)(=O)N3CCCC(C)C3)ccc21 (stereo not drawn) | -6% | i
CCOC(=O)c1cc(C)sc1NC(=S)Nc1ccccc1 | -5% | -7%
CCOC(=O)c1sc(NC(=O)CCN2CCN(C)CC2)c(C(=O)OCC)c1C | -10% | -6%

Other structures.
structure | VACV Venus inh | Vaccinia mCherry
CCc1nc2c(OCC(N)=O)cccn2c1N(C)C(=O)c1cccs1 | -6% | 60%[activator]
Cc1ccc(NC(=O)c2sccc2C)cc1S(=O)(=O)N(C)C | -20% | i
CCn1ccc2cc(S(=O)(=O)N3CCC(C(=O)NCc4ccc(F)cc4)CC3)ccc21 | ? | ?
Cn1c(/C(C#N)=C/c2cccc(O)c2)nc2ccccc21 | -12% | -4%
Cc1ccc(/C=C/C(=O)Nc2nnc(C)s2)o1 | 5% | -5%
Cc1cc(Cl)ccc1C(O)c1ncc(-c2ccc(C(F)(F)F)cc2)[nH]1 (stereo not drawn) | -20% | 11%
CCc1cc2ccccc2nc1SCC(=O)NC1CCCC1 | 3% | -1%
CCOC(=O)C1CCN(S(=O)(=O)c2cc(-c3cc(C)no3)ccc2OC)CC1 | -8% | -12%
CCc1nnc(NC(=O)c2cc(-c3ccc(C)o3)nc3ccccc23)s1 | -5% | -13%
COc1ccc(OC)c(-c2nnc(NC(=O)C(C)Sc3nncn3C)s2)c1 (stereo not drawn) | -12% | i
COc1cccc(Cn2c(=O)oc3ccccc32)c1 | 1% | i
O=C(NCc1ccc(F)cc1)c1cc(C2CCCN(C(=O)c3cccs3)C2)on1 (stereo not drawn) | -6% | i
CC(C)(C)c1ccc(S(=O)(=O)N[C@H]2CC[C@@H](n3cc(C(=O)N4CCCC4)nn3)CC2)cc1 | -23% | -22%
Cc1ccc(CN2C(=O)C(C)Sc3ccc(C#N)cc32)cc1 (stereo not drawn) | -13% | i
Cc1cccc(C)c1NC(=O)CN(C)C(=O)[C@H](C)NC(=O)c1ccco1 | -16% | i
CCOc1cc(NC(=O)c2cccs2)c(OCC)cc1NC(=O)c1ccco1 | -14% | ·
CC(=O)c1cccc(NC(=O)c2sc3nc4n(c(=O)c3c2C)CCCC4)c1 | -12% | -6%
CCN(C(=O)CN1CCCCCC1)c1c(N)n(Cc2ccccc2)c(=O)[nH]c1=O | -13% | i
